ClpP mod: qHTS Assay for Activators of ClpP | ATP-dependent Clp protease proteolytic subunit (Bacillus subtilis (strain 168)), P80244 | purified B. subtilis ClpP, FRET peptide cleavage, 20 min | Potency, µM (doses to about 57.5 µM), inactives show at the top dose activity change, negative = active | 340,000 compounds, 1.9% hits | AID 651965, 2013; active = well fitted falling curve with a large enough effect; inconclusive = small, poorly fitted or top-dose-only effect; inactive = no such curve, though single readings can be large or run the other way; further: the source files actives as falling curves though it sought activators and does not explain the sign; nearly all actives have a fitted effect of over 65% in size; many hits overshoot -100%
Target sequence (P80244 whole entry, looked up): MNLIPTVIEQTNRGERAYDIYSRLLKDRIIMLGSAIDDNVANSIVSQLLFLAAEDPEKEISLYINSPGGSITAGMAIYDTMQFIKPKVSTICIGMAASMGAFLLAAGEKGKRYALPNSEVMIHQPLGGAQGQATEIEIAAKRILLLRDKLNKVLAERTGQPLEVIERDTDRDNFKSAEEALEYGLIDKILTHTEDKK
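FRET quenching reversal measured ClpP activation: 10 microg/mL B. subtilis ClpP at pH 8 with the FRET-FV decapeptide, read at 430 nm after 320 nm excitation. The 20-min minus 0-min signal was scaled between DMSO/no-enzyme wells and ADEP (5.8 microM final).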
* = called active by the depositor. Potency means the concentration at half of the fitted maximal effect. These rows are one share of the data; rates above refer to the full screens.

What do the screens show for `CC(=O)Nc1ccc(NCc2nnc3n2CCCCC3)cc1`?
ClpP mod: -3.8%

Results for Cc1ccccc1NC(=O)Cn1nnc(C(=O)NCc2cccs2)c1N ?
ClpP mod: 0.7%

What do the screens show for `O=c1oc2ccccc2cc1-c1cn2cc(Cc3ccc(Cl)cc3)sc2n1`?
ClpP mod: -7.6%

What do the screens show for `CCCCNC(=O)CSc1nc2cc3c(cc2c(=O)n1CCCCCC(=O)NCc1ccc(OC)cc1)OCO3`?
ClpP mod: -7.3%

How did COc1ccc(Cl)cc1NC(=O)CCCn1c(C)c2cnn(-c3ccccc3)c(=O)c2c1C do in these assays?
ClpP mod: 2.5%

What do the screens show for `CSc1ncc(C(=O)N2CCN(c3ccc(F)cc3)CC2)c(C)n1`?
ClpP mod: -0.6%

How did CCn1nc(C)c(CCN(C)C(=O)Nc2cccc(Cl)c2C)c1C do in these assays?
ClpP mod: -0.9%

Results for Cc1ccc(NC(=O)Cn2c(=O)n(CCCCC(=O)NCc3ccc4c(c3)OCO4)c(=O)c3ccccc32)cc1 ?
ClpP mod: -1.9%

How did COc1ccc(-c2nnc(SCC(=O)Nc3cccc(C)c3)s2)cc1 do in these assays?
ClpP mod: inconclusive

How did CCc1ccc(NC(=O)Cn2ccn(-c3ccc(OC)cc3)c(=O)c2=O)cc1 do in these assays?
ClpP mod: inconclusive

Results for COc1ccccc1CNC(=O)CCn1c(=O)c2ccccc2n(CC(=O)Nc2ccc(C)cc2Cl)c1=O ?
ClpP mod: -3.7%

Results for CCCCN(CC)CCNC(=O)c1nn(C)c2c1CS(=O)(=O)c1ccccc1-2 ?
ClpP mod: -7.3%

Results for OCc1cnc(SCc2ccccc2F)n1Cc1ccc(F)cc1 ?
ClpP mod: -4.7%

What do the screens show for `COc1ccc(S(=O)(=O)N2CCCN(CC(=O)Nc3ccc(OC)cc3OC)CC2)cc1`?
ClpP mod: 1.3%

Results for Cc1c(Cl)cccc1-c1ccc(CNCCCSc2nnnn2C)o1 ?
ClpP mod: -1.5%

How did CCCNC(=O)CN1C(=O)c2c(c3ccccc3n2C)C1c1ccc(OC)cc1 (stereo unspecified) do in these assays?
ClpP mod: 28.2µM*

Results for CCC(C(=O)Nc1cccc(C#N)c1)n1c(=O)c(-c2ccccc2NC(C)=O)nc2ccccc21 (stereo unspecified) ?
ClpP mod: -12.0%

How did Cc1cc(C)c(NC(=O)CCCn2c(C)c3cnn(-c4ccccc4)c(=O)c3c2C)c(C)c1 do in these assays?
ClpP mod: -0.6%

What do the screens show for `Cc1cccc(C)c1OCC(=O)N(Cc1ccc(Cl)cc1)CC1CCCO1` (stereo unspecified)?
ClpP mod: -1.2%

How did COc1ccc(CNS(=O)(=O)c2cnc(N)nc2)c(OC)c1 do in these assays?
ClpP mod: -2.7%

How did Cc1ccc(NC(=O)C2CCCN2S(=O)(=O)c2ccc3c(c2)CCCC(=O)N3)cc1Cl (stereo unspecified) do in these assays?
ClpP mod: 1.6%

Results for O=C(Nc1ccc(F)cc1Cl)c1cnc(N2CCOCC2)c2ccccc12 ?
ClpP mod: -7.2%

What do the screens show for `COc1ccc(CCNCc2c(C(=O)O)c(C)n(Cc3cccc(Cl)c3)c2C)c(OC)c1OC`?
ClpP mod: 1.7%

Results for O=C(c1ccc2c(c1)N(Cc1ccccc1)C(=O)c1ccccc1S2(=O)=O)N1CCN(Cc2ccccc2)CC1 ?
ClpP mod: 0.9%

What do the screens show for `CN(C)c1ccc(/C=C/c2c3ccccc3nc3ccccc23)cc1`?
ClpP mod: -3.1%

Results for Cc1ccc(CNC(=O)CCN2C(=O)C(C)Oc3ccc(C)cc32)cc1 (stereo unspecified) ?
ClpP mod: -1.7%

Results for CC(C)(C)C(=O)CSc1nc2ccsc2c(=O)n1Cc1ccccc1F ?
ClpP mod: 1.0%

Results for CCNC(=O)c1c(NC(=O)Cc2coc3cc(C)cc(C)c23)sc2c1CCCC2 ?
ClpP mod: -0.3%

How did CN(C)c1ccc(/C=C/c2ncnc3ccccc23)cc1 do in these assays?
ClpP mod: 1.0%

How did Cc1c(CCC(=O)NCCc2ccccc2F)c(=O)oc2cc(O)ccc12 do in these assays?
ClpP mod: 4.4%

How did CC(=O)N1CCCc2cc(S(=O)(=O)N3CCC(C(=O)Nc4ccc(C)cc4Cl)CC3)ccc21 do in these assays?
ClpP mod: -1.1%

Results for CCc1ccc(NC(=O)Cc2c(C(=O)O)c(C)cn2C)cc1 ?
ClpP mod: 0.8%

Results for Cc1cccc(C(=O)n2nc(-c3cccnc3)nc2NCc2ccccc2)c1 ?
ClpP mod: -3.6%

What do the screens show for `Cc1cc(C)cc(NC(=O)Cn2nc(N3CCN(c4ccccc4)CC3)ccc2=O)c1`?
ClpP mod: 1.5%

How did CCOC(=O)c1ccc(N2C(=O)c3n[nH]c(-c4ccco4)c3C2c2ccc(O)c(OC)c2)cc1 (stereo unspecified) do in these assays?
ClpP mod: -13.7%

Results for Cc1cccc(N2CCN(C(=O)Cn3c(C)c4cnn(-c5ccccc5)c(=O)c4c3C)CC2)c1C ?
ClpP mod: 0.0%

How did Cc1ccc(C)c(CSc2nc3ncccc3[nH]2)c1 do in these assays?
ClpP mod: -6.7%

How did Cc1ccc(C(c2sc3nc(-c4ccco4)nn3c2O)N2CCCC2)cc1 (stereo unspecified) do in these assays?
ClpP mod: -3.3%

How did CCN(CC)S(=O)(=O)c1ccc2c(c1)N(CC(=O)NCc1ccccc1)C(=O)C1CCCCN21 (stereo unspecified) do in these assays?
ClpP mod: -3.0%

What do the screens show for `Cc1ccc(S(=O)(=O)c2cn(C)c3cc(N4CCN(c5ccccc5)CC4)c(F)cc3c2=O)cc1`?
ClpP mod: -5.2%

By substructure, the entries above containing two or more sulfur atoms.
How did COc1ccc(-c2nnc(SCC(=O)Nc3cccc(C)c3)s2)cc1 do in these assays?
ClpP mod: inconclusive

Results for CC(C)(C)C(=O)CSc1nc2ccsc2c(=O)n1Cc1ccccc1F ?
ClpP mod: 1.0%

Following part:
What do the screens show for `CNC(=O)C1CCC(Cn2c(=O)c3sccc3n(CC(=O)Nc3ccc(C)cc3C)c2=O)CC1` (stereo unspecified)?
ClpP mod: -0.7%

What do the screens show for `Cc1ccccc1NC(=O)c1c(NC(=O)c2ccncc2)sc2c1CCC(C(C)(C)C)C2` (stereo unspecified)?
ClpP mod: 0.9%

Results for Fc1ccc(-c2nc3c4c(-c5ccccc5)c(-c5ccccc5)oc4ncn3n2)cc1 ?
ClpP mod: -2.6%

Results for COc1ccc(N2CCN(CCCNC(=O)c3nnc(Cc4ccccc4Cl)o3)CC2)cc1 ?
ClpP mod: -0.4%

What do the screens show for `CNc1ccc(-c2nc(-c3ccco3)no2)cc1[N+](=O)[O-]`?
ClpP mod: -0.2%

Results for Cc1ccc(-n2ncc(C(=O)N3CCN(c4ccccc4F)CC3)c2C2CCN(C(=O)OC(C)(C)C)CC2)cc1C ?
ClpP mod: -1.7%

Results for COc1ccc(NCc2cc3cc4c(cc3n(CC(=O)Nc3ccccc3)c2=O)OCO4)cc1 ?
ClpP mod: 4.6%

What do the screens show for `Fc1ccccc1N1CCN(c2nc3ccccc3c3nc(-c4ccccc4)nn23)CC1`?
ClpP mod: -21.9%

How did Cc1ccc2oc(-c3cccc(NC(=O)c4cccc5c(Br)cccc45)c3)nc2c1 do in these assays?
ClpP mod: -1.6%

How did O=C1C[C@H]2C=CCc3cccc(c32)CN1Cc1ccccc1 do in these assays?
ClpP mod: -2.8%

Next part, starting with the last 6 of the part before.
What do the screens show for `CNc1ccc(-c2nc(-c3ccco3)no2)cc1[N+](=O)[O-]`?
ClpP mod: -0.2%

Results for Cc1ccc(-n2ncc(C(=O)N3CCN(c4ccccc4F)CC3)c2C2CCN(C(=O)OC(C)(C)C)CC2)cc1C ?
ClpP mod: -1.7%

Results for COc1ccc(NCc2cc3cc4c(cc3n(CC(=O)Nc3ccccc3)c2=O)OCO4)cc1 ?
ClpP mod: 4.6%

What do the screens show for `Fc1ccccc1N1CCN(c2nc3ccccc3c3nc(-c4ccccc4)nn23)CC1`?
ClpP mod: -21.9%

How did Cc1ccc2oc(-c3cccc(NC(=O)c4cccc5c(Br)cccc45)c3)nc2c1 do in these assays?
ClpP mod: -1.6%

How did O=C1C[C@H]2C=CCc3cccc(c32)CN1Cc1ccccc1 do in these assays?
ClpP mod: -2.8%

How did Cc1ccc(Cl)cc1-n1ncc2c(NCc3ccc(F)cc3)ncnc21 do in these assays?
ClpP mod: -7.2%

Results for Cc1ccc(Nc2c(-c3ccc(C)o3)nc3ccccn23)cc1 ?
ClpP mod: 4.3%

Results for CCc1cccc(NC(=O)c2nnn(Cc3ccc(SC)cc3)c2N)c1 ?
ClpP mod: 151.6%

How did CC(=O)N1CCc2c(sc3c2c(=O)n(-c2ccccc2C)c(=O)n3CC(=O)Nc2ccccc2)C1 do in these assays?
ClpP mod: 0.4%

How did CCCCOc1cccc(NC(=O)c2cccc(C(=O)Nc3cccc(OCCCC)c3)c2)c1 do in these assays?
ClpP mod: 4.3%

How did Cc1ccc(C)c(N2CCN(C(=O)Cn3nc(Cc4cccnc4)c4ccccc4c3=O)CC2)c1 do in these assays?
ClpP mod: -1.3%

Results for CCOc1ccc(NC(=O)c2nc(SCc3ccccc3F)ncc2Cl)cc1 ?
ClpP mod: 9.5%

What do the screens show for `CCC(=O)N1CCc2cc(Br)cc(S(=O)(=O)N(CC)Cc3ccccc3)c21`?
ClpP mod: 2.4%

Results for CC(C)(C)C(=O)Cn1c(=O)n(CCCCCC(=O)NCc2ccccc2Cl)c(=O)c2sccc21 ?
ClpP mod: -0.6%

Results for CCc1ccccc1N1CC(c2nc3ccccc3n2CCCOc2ccc(Cl)cc2)CC1=O (stereo unspecified) ?
ClpP mod: -0.3%

What do the screens show for `CCCCOc1ccc(CC(=O)N(C)O)cc1`?
ClpP mod: -0.5%

Results for CCOc1ccc(CCNC(=O)c2cc3c(-c4ccccc4F)nn(C)c3s2)cc1OCC ?
ClpP mod: inconclusive

What do the screens show for `Cc1ccc(CNC(=O)CN(c2ccc(C(C)C)cc2)S(=O)(=O)c2c(C)n[nH]c2C)cc1`?
ClpP mod: 0.1%

What do the screens show for `COc1ccc2oc(=O)cc(CN3CCN(c4ccccc4F)CC3)c2c1`?
ClpP mod: -7.3%

What do the screens show for `CCCCOc1ccc(C(=O)Nc2ccc(S(=O)(=O)Nc3nc(C)cc(C)n3)cc2)cc1`?
ClpP mod: -6.5%

Results for CCc1sc(Nc2cccc(C)c2)nc1-c1cc2cccc(OC)c2oc1=O ?
ClpP mod: -2.0%

Results for Cc1ccc(-n2nc3ccc(NC(=O)Cc4ccc(Cl)cc4)cc3n2)cc1 ?
ClpP mod: 1.5%

How did COCCCNC(=O)c1c(C)nn(-c2ccc(F)cc2)c1-n1cccc1 do in these assays?
ClpP mod: -0.1%

Results for COc1ccc(-c2noc(CN(C(C)C)S(=O)(=O)c3ccc(Br)cc3)n2)cc1 ?
ClpP mod: -1.4%

How did CCSc1nnc2c(n1)OC(c1cc(OC)c(OC)c(OC)c1)Nc1ccccc1-2 (stereo unspecified) do in these assays?
ClpP mod: -8.4%

Reprinted from the part before: 2 compounds, followed by the next part.
Results for COc1ccc(-c2noc(CN(C(C)C)S(=O)(=O)c3ccc(Br)cc3)n2)cc1 ?
ClpP mod: -1.4%

How did CCSc1nnc2c(n1)OC(c1cc(OC)c(OC)c(OC)c1)Nc1ccccc1-2 (stereo unspecified) do in these assays?
ClpP mod: -8.4%

How did COc1ccc(-c2nnc(SCC(=O)Oc3c(C)cccc3C)o2)cc1OC do in these assays?
ClpP mod: 3.7%

How did CCCCNC(=O)C1CCC(Cn2c(=O)c3sccc3n(CC(=O)N3CCCC3)c2=O)CC1 (stereo unspecified) do in these assays?
ClpP mod: 2.1%

How did CCOc1ccc(C(=O)c2cn(Cc3ccc(F)cc3)c3ccc(F)cc3c2=O)cc1 do in these assays?
ClpP mod: -10.9%

What do the screens show for `CCCOc1cccc(C2c3c(oc4ccc(F)cc4c3=O)C(=O)N2Cc2ccc3c(c2)OCO3)c1` (stereo unspecified)?
ClpP mod: 0.5%

What do the screens show for `CN1CCN(C(=O)Cn2c(-c3cccs3)cc3cc(Cl)ccc32)CC1`?
ClpP mod: 31.6µM*

What do the screens show for `O=C(CSc1nnc(-c2ccccc2F)o1)Nc1ccccc1Cl`?
ClpP mod: -1.4%

Results for CCC(=O)N1CCCc2cc(S(=O)(=O)N3CCC(C(=O)NCc4ccc(F)cc4)CC3)ccc21 ?
ClpP mod: -5.9%

Results for CN(C)c1ccc(/C=C/c2noc(-c3ccccc3O)n2)cc1 ?
ClpP mod: -10.8%

Results for COc1ccc(C(CC(=O)NCc2ccccc2)N2Cc3ccccc3C2=O)cc1 (stereo unspecified) ?
ClpP mod: 1.9%

Results for CC(=O)c1cccc(NC(=O)c2c(-c3ccccc3)c(-c3ccccc3)nn(C)c2=O)c1 ?
ClpP mod: 1.2%

What do the screens show for `CC(NC(=O)Cn1ncc2c3ccccc3n(Cc3ccc(F)cc3)c2c1=O)c1ccccc1` (stereo unspecified)?
ClpP mod: 6.6%

Results for CSc1nc2sc3c(c2c(=O)n1Cc1ccccc1)CCC(C(C)(C)C)C3 (stereo unspecified) ?
ClpP mod: -3.5%

What do the screens show for `COc1ccc(OC)c(CNC(=O)c2nn(-c3ccc(OC)c(Cl)c3)c(=O)c3c2c2ccccc2n3C)c1`?
ClpP mod: -7.2%

How did Cc1ccccc1Nc1sc(C(=O)c2ccc3c(c2)OCO3)c(N)c1S(=O)(=O)c1ccccc1 do in these assays?
ClpP mod: -22.5%

What do the screens show for `CCNc1nc(C#N)nc(NCC)n1`?
ClpP mod: -9.4%

What do the screens show for `COc1cccc(NC(=O)C2CCC(CNS(=O)(=O)c3csc(C(N)=O)c3)CC2)c1` (stereo unspecified)?
ClpP mod: -0.1%

What do the screens show for `Nc1cccc(-c2cn3ccsc3n2)c1`?
ClpP mod: -16.3%
